Bead autofluor: counter-screen for toxin protease inhibitors: compound fluorescence; compound autofluorescence counterscreen, microsphere flow cytometry; hits give high values; fluorescence intensity (concentration not given with the values); 360,000 compounds, 3.1% hits; AID 624483;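 active = at least 3 SD above the mean of all compounds, about 16000 in these data; inconclusive = too few beads counted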;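 note: 100 nL of 1 mM stock went into each well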
PrP UTR inh: inhibition of PrP 5' UTR reporter expression; cell-based PrP 5' UTR mRNA reporter, plate reader; inhibition, % (test concentration not listed); 340,000 compounds, 0.35% hits; AID 488862, 2010;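 active = every replicate at 50% or more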;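 note: 0 = median of the neutral control wells; tested in H4 reporter cells; numbers are from one replicate; inactives centre near -14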
Sa RN4220 lethal: growth inhibition of S. aureus RN4220, primary screen, OD600; 16 h; inhibition, % (test concentration not listed); 330,000 compounds, 0.33% hits;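 active = z-score of -3 or lower and OD600 up to 0.18 on both plates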;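 note: plate controls were untreated cells for no effect and reference antibiotic for full effect; stock transfer was 100 nL into about 80 µL; one replicate is shown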
BJeLR lethal: MLPCN primary cell-based screen for lethality selective to Ras in HRASV12 cells. inhibition, % (test concentration not listed). 300,000 compounds, 0.17% hits. BJeLR (HRASV12) viability, CellTiter-Glo ATP luminescence, 48 h; reference of the scale not given here. AID 1554, 2009;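 active = replicate mean above 50%; inconclusive = above 50% but judged a plate artefact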;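 note: 50 nL library stock added to about 25 µL; numbers are from one replicate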
ugtP null kill: growth inhibition of ugtP-null S. aureus, primary screen, RN4220 ugtP deletion, OD600; growth inhibition, % (test concentration not listed); 330,000 compounds, 0.54% hits; 16 h; some inactives read as strong as hits;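 active = z-score under -3 and OD600 up to 0.15 on both plates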;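 note: plate controls were untreated wells for no effect and antibiotic for full effect; wells of about 80 µL received 100 nL stock; the first replicate is given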
Mtb hypoxia rep: PubChem AID 1159583; fluorescence inhibition, % (concentration not given with the values); M. tuberculosis hypoxia-regulated fluorescent reporter, fluorescence; 300,000 compounds, 0.1% hits;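 active = 35 to 45% if threefold the growth effect, above 45% if 1.5-fold the growth effect; inactive = the rest, general growth blockers included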;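 note: wells of about 50 µL received 100 nL stock; 0% = vehicle wells and 100% = reference inhibitor wells; whole bacteria with a GFP reporter of the hypoxia response; strong numbers were not always called active; many hits fall short of the cut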
Mtb hypoxia rep growth: recorded beside Mtb hypoxia rep, whose call it bears; growth inhibition, %; measured here: M. tuberculosis growth (absorbance);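 0% = vehicle and 100% = reference antibiotic; read after six days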
An asterisk follows results filed as active; ? = inconclusive; nt = no result given. Not a hit list. Share with any hit: about 3.9%.

SMILES | Bead autofluor | PrP UTR inh | Sa RN4220 lethal | BJeLR lethal | ugtP null kill | Mtb hypoxia rep | Mtb hypoxia rep growth
N#Cc1ccc(COC(=O)c2ccc3c(=O)[nH]c(CN4CCOCC4)nc3c2)cc1 | 23349* | -26 | 8.1 | 0 | -16 | 16 | 6
CCOC(=O)C1(Cc2cccc(OC)c2)CCCN(CCO)C1 (configuration not stated) | 4713 | -17 | 2.6 | -3 | 7 | -2 | 13
CC1CN=C(N(C)C)N1CCCC1CCCCC1 (configuration not stated) | nt | nt | 6.9 | nt | 9 | 25 | 14
Cc1cc(=O)[nH]c(SCc2nc3ncccn3c2Br)n1 | 24282* | -6 | 2.1 | 0 | 4 | -2 | -1
N#Cc1c(-c2ccco2)cc(C2CC2)nc1SCC(=O)c1ccccc1 | 8749 | -9 | 5.2 | -2 | 0 | -1 | 0
CCOc1ccccc1NC(=O)C1CCN(S(=O)(=O)c2c(C)noc2C)CC1 | 4414 | 0 | 1.4 | -5 | 2 | -6 | -1
COC(=O)CCNc1n[nH]c(=O)[nH]c1=O | 2152 | -12 | 2.6 | -1 | 4 | 0 | 10
Cc1ccc2c(c1)N(C(=O)CCC(=O)N1CCOCC1)CC(C)O2 (configuration not stated) | 6065 | -16 | -5.0 | -2 | -3 | 2 | 7
CCCS(=O)(=O)c1c(S(=O)(=O)CCC)c2c3ccccc3ccn2c1C(=O)OC | 4065 | -7 | 1.3 | 11 | 9 | 7 | 7
Cc1ccc(-c2nnc(SCC(N)=O)nc2-c2ccc(C)cc2)cc1 | 4078 | -13 | -1.4 | -4 | 12 | 6 | 8
CCOC(=O)CN(C(=O)COc1nc(C)cc(C)c1C#N)c1cccc(Cl)c1 | nt | -2 | 4.3 | 11 | 10 | 5 | -4
O=C(O)c1ccc(N=Nc2c(O)ccc3ncccc23)cc1 | 2838 | -63 | nt | 11 | nt | nt | nt
O=c1[nH]nc(CNc2cccc(C(F)(F)F)c2)c2ccccc12 | 2200 | -14 | 1.6 | 3 | -19 | 2 | 0
CC(C)c1onc(C(=O)Nc2cccc(Cl)c2)c1[N+](=O)[O-] | 2508 | 0 | 42 | -15 | 27 | 4 | 0
CC1CN(Cc2nc3c(c(=O)n(C)c(=O)n3C)n2CCCc2ccccc2)CC(C)O1 (configuration not stated) | 2628 | -3 | 1.4 | -2 | -3 | nt | nt
O=C(COc1ccccc1)NCCc1nc2ccccc2[nH]1 | 4068 | -27 | -1.7 | -2 | -8 | 3 | 9
COc1cccc(OCC(=O)O/N=C(\N)c2ccncc2)c1 | 3966 | -25 | 4.4 | 6 | 3 | 1 | 12
Cc1ccc2c(c1)N(C(=O)CCC(=O)Nc1ccccc1Cl)CC(C)O2 (configuration not stated) | 6795 | -20 | -13 | -12 | -9 | 4 | 14
CCC(=O)Nc1nc2ccc(NC(C)=O)cc2s1 | 3579 | -27 | 6.6 | 5 | -1 | 7 | 6
CCCCC[n+]1ccn(C2=C([O-])c3ccccc3C(=O)/C2=N\S(=O)(=O)c2ccccc2)c1 | 2281 | -16 | 26 | 8 | 45 | 23 | 14
Cc1ccc(-c2nnc(SCc3nc(N)nc(Nc4ccccc4C)n3)n2N)cc1 | 4368 | -32 | nt | 0 | nt | nt | nt
O=[N+]([O-])c1ccc(N(c2ccccc2)c2ccccc2)cc1 | 21531* | -1 | -5.3 | -11 | 35 | 6 | 10
Cc1cccc(NCC(=O)NN=Cc2cccc(Oc3ccccc3)c2)c1 | nt | nt | -12 | nt | -20 | 5 | 0
NS(=O)(=O)c1ccc(NC(=S)N2CCN(c3ccc(Cl)c(Cl)c3)CC2)cc1 | 9779 | 2 | nt | -13 | nt | nt | nt
Cc1cc(C)n(CC(=O)NNC(=O)c2ccc(OC(F)(F)F)cc2)n1 | 2999 | 3 | 5.9 | nt | 12 | 7 | 6
COc1ccc(CCCC(=O)NN=Cc2ccccc2OC)cc1 | nt | nt | 7.6 | nt | 2 | 12 | 5
Cc1cc(C)cc(OCC(=O)Nc2ccc(N3CCN(C(=O)c4ccco4)CC3)cc2)c1 | 8216 | -23 | 3.2 | -1 | -2 | 7 | 13
Cn1c(=O)c(S(=O)C2CCCCC2)c(O)c2ccccc21 (configuration not stated) | 4992 | 0 | 4.5 | -3 | 1 | -1 | 7
CC1CCCC(C)N1c1nnc(NC(=O)c2cc(-c3ccc(Br)cc3)on2)s1 (configuration not stated) | 5507 | -24 | nt | -5 | nt | nt | nt
CCOC(Cn1c(-c2ccc(OC)cc2)nc2ccccc21)OCC | 3509 | -9 | 2.1 | 8 | 8 | nt | nt
Cc1cc(C)n(CC2CC(=O)N(c3ccc(Cl)cc3)C2=O)n1 (configuration not stated) | 4353 | -7 | 3.5 | -12 | 10 | 7 | 6
Cc1cc(NC(=O)c2cc(C)on2)n(-c2ccccc2)n1 | 2499 | -35 | nt | -5 | nt | nt | nt
COc1ccccc1N1CCN(C(=O)c2ccc(Cl)c(S(=O)(=O)N3CCCC3)c2)CC1 | 3291 | -12 | 2.4 | -11 | 1 | 12 | 2
Nc1cc(C(=O)OCC(=O)N2CCCC2=O)ccc1Cl | ? | -7 | 2.6 | 3 | 2 | 5 | 0
O=C(CN(Cc1ccc(Cl)cc1)C(=O)c1csnn1)NCc1ccccc1 | 3937 | -6 | -0.2 | -8 | 10 | 5 | 1
O=C(O)c1ccc(N/N=C2/CCCc3ccccc32)cc1 | 3445 | -25 | nt | -7 | nt | nt | nt
Cc1cc(C)c(C#N)c(SCc2ccc(F)cc2)n1 | 2109 | -16 | 1.0 | -12 | -1 | -3 | 13
O=[N+]([O-])c1cc(C=NN2CCOCC2)cs1 | nt | nt | 6.6 | nt | 10 | 14 | 4
COc1ccccc1Cn1c(-c2ccccc2OC)nc2ccccc21 | 3908 | -7 | 8.1 | 5 | 9 | 8 | 15
CCCCn1c(=O)nc2n(-c3ccc(Cl)cc3)c3ccccc3cc-2c1=O | 2543 | -5 | 3.6 | 12 | 18 | 0 | 2
Cn1cccc1/C=N/NC(=O)C12CC3CC(CC(C3)C1)C2 | 2543 | -5 | nt | 2 | nt | nt | nt
ON=Cc1ccc(-c2cc(Cl)ccc2Cl)o1 | nt | nt | 10 | nt | 9 | 5 | 0
Cc1ccc(NC(=O)C2CCN(S(=O)(=O)c3ccc4c(c3)OCCO4)CC2)nc1 | 5513 | -4 | -2.6 | -2 | -2 | -1 | 0
COCCCNC(=O)C(=O)NN=Cc1cc2c(cc1Br)OCO2 | nt | nt | 1.8 | nt | 2 | 10 | 6
CCC(OC(=O)CN1C(=O)C(=O)c2ccccc21)C(=O)Nc1ccc(S(N)(=O)=O)cc1 (configuration not stated) | 2533 | -3 | -1.8 | -2 | -4 | -6 | 2
CCOC(=O)N1CCN(CC(=O)Nc2c(C(=O)OC)[nH]c3ccccc23)CC1 | 8565 | 4 | 2.7 | 10 | 2 | 1 | -6
Cc1nn(C)c(Oc2ccccc2)c1CCNS(=O)(=O)c1ccccc1 | 3232 | -1 | 9.2 | 2 | 1 | 11 | 7
CCOc1ccc(/C(O)=C2/C(=O)C(=O)N(CCOCCO)C2c2ccccc2)cc1 (configuration not stated) | 3462 | -9 | nt | 0 | nt | nt | nt
COCCn1c(C)cc(C(=O)CSc2ccc(NC(C)=O)cc2)c1C | 4730 | 3 | 4.3 | -6 | 1 | 14 | 13
O=[N+]([O-])c1cccc2ccc(/C=C/c3ccc(F)cc3)nc12 | 10883 | -91 | -1.8 | 0 | 40 | 5 | 5

The list goes on, overlapping the part above by 3 compounds.
SMILES | Bead autofluor | PrP UTR inh | Sa RN4220 lethal | BJeLR lethal | ugtP null kill | Mtb hypoxia rep | Mtb hypoxia rep growth
CCOc1ccc(/C(O)=C2/C(=O)C(=O)N(CCOCCO)C2c2ccccc2)cc1 (configuration not stated) | 3462 | -9 | nt | 0 | nt | nt | nt
COCCn1c(C)cc(C(=O)CSc2ccc(NC(C)=O)cc2)c1C | 4730 | 3 | 4.3 | -6 | 1 | 14 | 13
O=[N+]([O-])c1cccc2ccc(/C=C/c3ccc(F)cc3)nc12 | 10883 | -91 | -1.8 | 0 | 40 | 5 | 5
OCc1cccc[n+]1CCc1ccccc1 | 6409 | nt | -1.4 | -4 | 6 | 2 | 1
CCCc1cc(=O)oc2c(C)c(OCC(=O)N3CCC(C(=O)O)(c4ccccc4)CC3)ccc12 | 4017 | -15 | 7.5 | -12 | 6 | nt | nt
Cc1nc2ncnn2c(N2CCN(C(=O)Cc3cccs3)CC2)c1C | 22223* | -24 | 2.6 | 1 | 5 | -2 | 6
CCOc1cc(/C=N/O)cc(Br)c1OCC(=O)NCc1ccccc1 | 6788 | 0 | nt | 2 | nt | nt | nt
COc1cccc(OCc2nnc(SCC(=O)NNC(=O)C3CCCCC3)n2C)c1 | 2421 | -19 | 5.0 | -11 | 3 | 13 | 9
CC(C)(C)C(=O)/C=C(\N)c1ccccn1 | 2045 | -31 | -2.3 | -8 | 0 | nt | nt
Cc1cnc(C)c(N2CCC(C(=O)NCc3cccs3)CC2)n1 | 3253 | -1 | 2.5 | -5 | -1 | nt | nt
CC(C)(C)NS(=O)(=O)c1cc(C(=O)Nc2sccc2C#N)ccc1Cl | 2346 | -37 | 16 | -5 | -11 | 7 | 14
CC(=NO)c1noc(C)c1C(=O)Nc1nccs1 | nt | nt | 1.9 | nt | -5 | -10 | 9
O=C(Nc1ncccc1O)c1cc2ccccc2o1 | 5948 | -46 | 5.1 | -3 | -2 | 2 | 0
O=C(NCCCN1CCOCC1)C(=O)N/N=C/c1c(Cl)cccc1Cl | 2793 | -18 | nt | 7 | nt | nt | nt
CCN(CC)S(=O)(=O)c1ccc(C(=O)NC(=S)N(CCC#N)Cc2cccnc2)cc1 | 4415 | -138 | 1.6 | 7 | 8 | 2 | 5
CCN(CC)S(=O)(=O)c1ccc(N2CCCC2)c(NC(=O)Cc2ccccc2)c1 | 4582 | -86 | 2.5 | 5 | 4 | 4 | 6
CCOC(=O)/C=C/C(=O)Nc1cc(S(=O)(=O)Nc2ccc(OC)cc2)ccc1N1CCOCC1 | 3901 | -20 | 5.3 | nt | 10 | 3 | 0
CCCOc1ccc(/C=C/C(=O)N2CCOCC2)cc1 | 3233 | -46 | 6.5 | -8 | 2 | 0 | 11
O=C(NCc1ccco1)c1ccc(=O)[nH]n1 | 4802 | -6 | 2.6 | 7 | 3 | nt | nt
CCC(C)(C)NC(=O)C(c1ccc(C)cc1)N(Cc1ccco1)C(=O)CCC(=O)Nc1nccs1 (configuration not stated) | 2001 | -3 | 6.8 | 3 | 2 | nt | nt
CC(C)(C)c1nc2sc3c(c2c(=O)o1)CCCC3 | 3621 | -13 | 5.6 | -3 | 13 | nt | nt
CN(C)S(=O)(=O)NCCNc1ccc(C(F)(F)F)cc1[N+](=O)[O-] | 3673 | -5 | 0.9 | 9 | -2 | 13 | 1
S=c1[nH]nc(-c2ccc(Cl)cc2)n1-c1ccc(Cl)cc1 | 2992 | 1 | 4.4 | -2 | 4 | 9 | 4
CC1CCCCN1CCCNC(=O)C1CCN(c2nc3ccccc3o2)CC1 (configuration not stated) | 8234 | -22 | 1.9 | -3 | 2 | 1 | -7
COc1ccc2[nH]c(C(=O)N(C)c3ccc(F)cc3F)cc2c1 | 4183 | -4 | 6.8 | -3 | 0 | 10 | 6
O=C(CSc1nc2ccccc2c(=O)n1Cc1ccco1)NCc1ccco1 | 8565 | -3 | 4.2 | 1 | -6 | -4 | 5
O=C(Nc1ccc(F)c(Cl)c1)N1CCCC1 | 2043 | -20 | 2.5 | 4 | 9 | 9 | 4
Cc1ccc(S(=O)(=O)NCCC(=O)NCC(=O)Nc2c(C)cccc2C)cc1C | ? | -18 | 4.0 | 1 | 12 | 7 | -1
CCOC(=O)c1[nH]ncc1CN1CCCC(C(=O)c2cccc3ccccc23)C1 (configuration not stated) | 2327 | -12 | 0.6 | -11 | 4 | 6 | 7
COc1ccc2[nH]c(=O)c(CN(CC3CCCO3)C(=O)Nc3ccccc3)cc2c1 (configuration not stated) | 5294 | -13 | 4.7 | 7 | -3 | 8 | 8
CC1(C(=O)OCC(=O)Nc2ccc(C(N)=O)cc2)CC1(Cl)Cl (configuration not stated) | 4448 | -18 | 1.2 | -19 | 2 | 6 | 8
